High-throughput results as filed in PubChem.
Epigenetic reg = regulators of epigenetic silencing causing reporter derepression in mouse cells. murine LDR cells, GFP reporter derepression, 30 h. Potency, µM (highest dose often 53.9 µM), inactives show at the top dose GFP activation, most hits filed as activators. 0.2% of 280,000 active. AID 1865; note: potency is the fitted concentration of half-maximal effect; % of control where 0% means no effect; nearly all actives have a fitted effect of over 60% in size
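Reporter derepression read as number of fluorescent GFP-positive objects, 20-120 um in size, counted by laser-scanning cytometer. Mouse LDR line with an epigenetically silenced CMV-GFP locus; compound incubation 30 h, 37 C.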
IMPase Li cell = cell-permeable IMPase inhibitors with lithium potentiation. 0.35% of 210,000 active. CHO-M1 cells, IP1 TR-FRET (IP-One), carbachol + lithium. Potency, µM (series often up to 59.4 µM), for the others: at the top dose activity, negative = IMPase inhibition, usual class: inhibitors;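 note: IP1 builds up when IMPase is blocked and the TR-FRET signal falls; potency is the fitted concentration of half-maximal effect; plate controls were basal vehicle for no effect and high inhibitor control for full effect; nearly all actives have a fitted effect of over 50% in size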
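CHO cells stably expressing M1 receptor (2000/well) were cultured 16–30 h, then exposed to compounds with a small lithium addition for 30 min at 37C. IP1 was measured by TR-FRET competition; AC50 from Hill fits.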
HTT aggregate = reduces HttQ103-GFP aggregates in PC12 cells; PC12 HttQ103-GFP aggregates, Acumen cytometry, 40 h; Potency, µM (series often up to 46.1 µM), without a hit: at the top dose activity change, negative = inhibition, most hits filed as inhibitors; 1.1% of 220,000 active; AID 1688; note: potency is the fitted concentration of half-maximal effect; % is set by controls: 0 for no effect and ±100 for the full control effect; nearly all actives have a fitted effect of over 60% in size
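Inducible Q103 Huntingtin exon 1–GFP PC12 line, 1500 cells/well in phenol red free DMEM with 5% equine and 5% calf serum. Tebufenozide 100 nM induced expression; compounds titrated; aggregates quantified by cytometry.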
L3MBTL1 block = inhibitors of human L3MBTL1 | Q9Y468 | AlphaScreen L3MBTL1–H3K9me1 peptide binding | Potency, µM (highest dose often 57.1 µM), without a hit: top-dose activity, negative = inhibition, most hits filed as inhibitors | 0.66% of 230,000 active | AID 485360; note: potency is the fitted concentration of half-maximal effect; % is set by controls: 0 for no effect and ±100 for the full control effect; nearly all actives have a fitted effect of over 60% in size
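Read-out is AlphaScreen signal from streptavidin donor and nickel chelate acceptor beads (10 ug/mL final each) bridging L3MBTL1 (50 nM) and biotinylated K9-monomethylated H3(1-15) peptide (75 nM), after 30 min compound exposure at room temperature.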
CBFb RUNX1 block = CBF-beta/RUNX1 interaction disruption | AlphaScreen CBFb-His/RUNX1-biotin binding, biochemical | 230,000 tested, under 10 active | Q01196+Q13951 | Potency, µM (doses to about 59.8 µM), for the others: at the highest dose activity, negative = inhibition, most hits filed as inhibitors; note: % of control where 0% means no effect
Target sequence (Q01196 whole entry, looked up): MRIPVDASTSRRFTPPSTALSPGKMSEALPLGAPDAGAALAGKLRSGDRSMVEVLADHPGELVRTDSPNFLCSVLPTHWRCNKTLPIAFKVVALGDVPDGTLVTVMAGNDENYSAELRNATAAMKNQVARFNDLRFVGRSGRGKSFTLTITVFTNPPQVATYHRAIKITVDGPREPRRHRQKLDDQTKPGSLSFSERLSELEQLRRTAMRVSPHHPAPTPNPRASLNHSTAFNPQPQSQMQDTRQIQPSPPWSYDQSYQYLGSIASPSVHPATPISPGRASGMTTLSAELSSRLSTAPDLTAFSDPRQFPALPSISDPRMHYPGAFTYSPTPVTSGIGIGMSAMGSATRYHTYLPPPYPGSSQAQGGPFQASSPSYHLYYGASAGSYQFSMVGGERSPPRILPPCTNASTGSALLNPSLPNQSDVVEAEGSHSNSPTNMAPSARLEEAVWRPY
Target sequence (Q13951 whole entry, looked up): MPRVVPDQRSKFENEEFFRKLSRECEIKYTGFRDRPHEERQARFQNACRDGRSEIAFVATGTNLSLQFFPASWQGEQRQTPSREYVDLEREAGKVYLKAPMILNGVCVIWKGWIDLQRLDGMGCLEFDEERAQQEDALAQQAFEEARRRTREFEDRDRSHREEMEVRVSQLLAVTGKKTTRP
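Read-out: AlphaScreen. Format: His-CBF-beta with biotinylated RUNX1 (30 nM each) preincubated 20 min, compound 15 min, Ni-chelate plus streptavidin beads 90 min; room temperature throughout.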
KinaseGlo FLuc = Kinase-Glo luciferase inhibition (counter-screen); Q27757; Potency, µM (highest dose often 38.3 µM), for the others: top-dose activity change, negative = inhibition, hits mostly inhibitors; 0.28% of 200,000 active; Kinase-Glo luciferase, ATP luminescence, 8 min; note: potency is the fitted concentration of half-maximal effect; % is set by controls: 0 for no effect and ±100 for the full control effect; nearly all actives have a fitted effect of over 60% in size
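Substrate mix (final 50 mM imidazole pH 7.2, 50 mM KCl, 7 mM MgCl2, 10 uM ATP, 0.01% Tween 20, 0.05% BSA) plus pin-tool compound, then Kinase-Glo detection mix; 8 min ambient, luminescence read.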
* marks the source's active call; other numbers are inactive results; ? = inconclusive; . = not tested or not shown; [ ] = remark or other dose. Calls come from the whole dose curve; as a rule, active = well fitted curve in the direction sought with a large enough effect; inconclusive = small, poorly fitted or top-dose-only effect, or another doubt; inactive = no such curve, though single readings can be large; an effect the other way counts as inactive or inconclusive.

SMILES	Epigenetic reg	IMPase Li cell	HTT aggregate	L3MBTL1 block	CBFb RUNX1 block	KinaseGlo FLuc
NC(=S)N/N=C/c1ccc(-c2ccc(Cl)c(Cl)c2)o1	1.5%	14%[38.3 µM]	?	.	-14%	-5%
COc1cc([N+](=O)[O-])c(OC)cc1SCc1n[nH]c(=S)n1-c1ccc(F)cc1	1.1%	.	10%[9.22 µM]	-21%	-11%	.
COc1ccc(C(C(=O)NC2CCCCC2)N(C(=O)c2ccccn2)c2cccnc2)cc1 (configuration not stated)	0.2%	4%	-15%[9.22 µM]	11%	-4%	3%
CCC(CC)NC(=O)COC(=O)c1ccc(NS(=O)(=O)c2ccc3c(c2)OCCO3)cc1	-0.7%	20%[38.3 µM]	-3%	.	8%	3%
COCCN(Cc1cc2cc(C)ccc2n2nnnc12)C(=S)Nc1ccccc1C	4.3%	?	?	.	-15%	0%
Cc1cc(NC(=O)CCS(=O)(=O)c2nc(-c3ccccc3)cc(C(F)(F)F)n2)no1	2.9%	37%[activator][38.3 µM]	.	.	4%	3%
Cc1ccc(-c2nn(-c3ccccc3)cc2C2CC(c3cccs3)=NN2C(=O)CCCC(=O)O)cc1 (configuration not stated)	0.8%	14%[38.3 µM]	7%	.	3%	1%
Cc1ccnc(NC(=O)c2cccc(NC(=O)COc3ccccc3)c2)c1	-1.2%	-11%[38.3 µM]	7%	0%	-3%	-2%
COCCN(C(=S)Nc1ccc(C(C)C)cc1)C(C)c1cccs1 (configuration not stated)	-1.7%	10%	11%	-3%	9%	4%
Cc1cc2c3c(c1)C1(SCC(=O)N1c1ccc(F)cc1)C(=O)N3C(C)(C)CC2C (configuration not stated)	-0.7%	12%[38.3 µM]	5%	.	-11%	-4%
O=C(Nc1nn(Cc2ccc(Cl)cc2)cc1Br)c1ccc(COc2ccccc2Cl)o1	-5.8%	49%[38.3 µM]	5%	.	2%	-5%
O=C(Nc1nc(-c2cc(Cl)sc2Cl)cs1)c1ccccc1	-2.3%	58%[activator][38.3 µM]	?	.	17%	-3%
C=CCn1c(SCc2c(C)noc2C)nc2sc3c(c2c1=O)CCC(C)C3 (configuration not stated)	-0.7%	14%[38.3 µM]	?	-4%	5%	-7%
COC(=O)CN1C(=S)N(c2ccc(Cl)cc2)C(=O)C1CC(=O)Nc1ccc(Cl)cc1 (configuration not stated)	0.9%	9%[38.3 µM]	-9%	?	7%	-3%
NC(=O)c1cc(-c2ccccc2)nc(N2CCCCCC2)n1	1.0%	0%[38.3 µM]	-6%	7%	11%	0%
Cc1ccc(Cn2c(=N)n(CC(O)COc3ccccc3)c3ccccc32)cc1 (configuration not stated)	-5.4%	37%[activator][38.3 µM]	-79%	.	-8%	-5%
CC1CC(N(C(=O)c2ccccc2Cl)c2ccccc2)c2ccccc2N1 (configuration not stated)	1.0%	5%[38.3 µM]	?	-6%	-2%	-2%
Cn1c(=O)c2c(ncn2Cc2ccc(Cl)c(Cl)c2)n(C)c1=O	1.1%	56%[activator][38.3 µM]	?	0%	13%	0%
Cc1ccc(N=C(NOCc2ccc(Cl)cc2Cl)c2nonc2N)c(C)c1	-2.0%	13%[38.3 µM]	?	.	8%	-4%
CCC(=O)NC(=S)Nc1cccc(Cl)c1N1CCCCC1	0.0%	18%[38.3 µM]	9%	0%	-8%	-4%
C/C(=N\NC(=O)c1ccc(NS(=O)(=O)c2cccs2)cc1)c1ccncc1	0.0%	10%	24%	-8%	5%	3%
CCOc1cc(-c2nc3ccccn3c2NCC2CCCO2)ccc1O (configuration not stated)	-0.8%	-1%[38.3 µM]	25%	-1%	7%	1%
CNC(=O)c1[nH]cnc1C(=O)N[C@@H](Cc1ccccc1)C(=O)OCc1ccccc1	-1.8%	-1%	10%[9.22 µM]	-2%	4%	.
CC(C)OC(=O)CCCN1C(=O)c2ccc(N)cc2C1=O	-2.2%	-16%[38.3 µM]	16%	13%	3%	0%
CCOC(=O)c1ccc(NC(=O)c2nc[nH]c2C(=O)NC2CCN(C(=O)OC(C)(C)C)CC2)cc1	0.0%	.	-3%[9.22 µM]	.	18%	.
CCOc1cccc2sc(N(CCN(C)C)C(=O)c3ccc(Br)s3)nc12	-1.1%	-7%	13%	.	-2%	-3%
COC(=O)c1sc(-c2ccccc2)cc1NC(C)=O	1.2%	-6%	-13%	30%	20%	-2%
COC(=O)c1sc(-c2ccc(C(C)(C)C)cc2)cc1NC(=O)/C=C/C(=O)O	-3.1%	.	-5%[9.22 µM]	.	-6%	.
CCOC(=O)C1CCN(CC(=O)Nc2c(C(=O)OC)[nH]c3ccc(Cl)cc23)CC1	0.0%	-5%[38.3 µM]	-17%	-1%	5%	3%
C[C@H](NC(=O)c1nc[nH]c1C(=O)NC(c1ccccc1)c1ccccc1)C(=O)OCc1ccccc1	-6.1%	.	-25%[9.22 µM]	.	-7%	.
Cc1nn(-c2ccccc2)c2sc(C(=O)N(CC(=O)NC3CCCC3)Cc3ccco3)cc12	14%	46%[activator][38.3 µM]	-9%	.	-4%	-4%
CCN(CC)S(=O)(=O)c1cc(C(=O)Nc2cc(Cl)ccc2N2CCN(C)CC2)ccc1Cl	-6.1%	2%[38.3 µM]	21%[9.22 µM]	.	-4%	-1%
COc1ccc(NC(=O)c2sc3nc(-c4cccnc4)ccc3c2N)cc1	?	.	-1%[9.22 µM]	.	12%	.
O=C1Nc2c(c(=O)[nH]c(=O)n2-c2ccccc2)C(C(F)(F)F)(C(F)(F)F)N1	-1.0%	14%[38.3 µM]	-9%	.	1%	-5%
CCc1cc(C(c2ccccc2OC)N2CCOCC2)c(NC(=O)c2ccccc2)s1 (configuration not stated)	0.0%	18%[38.3 µM]	7%	0%	-4%	1%
Cc1cc(N2CCN(Cc3ccccc3)CC2)n2nc(C)c(-c3ccccc3)c2n1	-1.4%	19%[38.3 µM]	-3%	.	4%	-4%
CC(C)C1Cc2c(sc3c2c(=O)n(Cc2ccccc2)c2nncn32)CO1 (configuration not stated)	1.0%	30%[38.3 µM]	8%	.	-3%	2%
CCOC(=O)c1c(C)oc2c(F)c(F)c(F)c(F)c2c1=O	6.4%	-18%	10%	-8%	2%	2%
Cc1ccc(NC(=S)N(CCCN2CCCC2)Cc2cccn2Cc2ccc(Cl)cc2)cc1C	-0.1%	14%	?	.	-1%	3%
CCOC(=O)C1=C(C)N=c2s/c(=C\c3ccncc3)c(=O)n2C1c1ccc2c(c1)OCO2 (configuration not stated)	-1.3%	9%[38.3 µM]	1%	-13%	-20%	-1%
COc1ccc(/C=C2/SC(=O)N(CC(=O)Nc3cc(C)on3)C2=O)cc1OC	-1.0%	.	2%	?	-4%	2%
Cc1cc(-c2nnc(SCC(=O)N3C(C)CCCC3C)o2)no1 (configuration not stated)	-0.9%	-8%[38.3 µM]	10%	-4%	11%	8%
COC(=O)C1=NN(c2ccc(OC)cc2)C2C(=O)N(c3ccccc3OC)C(=O)C12 (configuration not stated)	-1.7%	.	-13%[9.22 µM]	.	9%	.
COc1cc2ncc(C(=O)c3ccccc3)c(N3CCN(Cc4ccccc4)CC3)c2cc1OC	-1.0%	.	11%[9.22 µM]	-17%	-27%	.
O=C1CC(Cc2ccccc2)C(=O)N1Cc1ccco1 (configuration not stated)	-2.6%	-12%[38.3 µM]	25%	-1%	7%	2%
COc1ccc2[nH]c(C)c(C(=O)CN3CC(C)OC(C)C3)c2c1 (configuration not stated)	-1.1%	0%[38.3 µM]	9%	11%	4%	1%
COC(=O)c1cc2ccsc2n1Cc1cccc(F)c1	-1.1%	4%	26%	40%[activator]	?	0%
COc1cccc2cc(C(=O)C3=C(O)C(=O)N(CCN4CCOCC4)C3c3ccc(Cl)cc3)oc12 (configuration not stated)	0.0%	.	5%[9.22 µM]	-1%	1%	.
Cn1c(=O)c2cn3c(c2n(C)c1=O)C(c1ccccc1)CC(c1ccccc1)=N3 (configuration not stated)	-0.7%	-9%[38.3 µM]	21%	.	-3%	0%
CCOC(=O)N1CCN(C(=O)Nc2ccc3nc(C)c(C)nc3c2)CC1	-4.3%	-13%[38.3 µM]	3%	30%	1%	2%
Cn1ncc2nnn(-c3ccccc3)c(=O)c21	-1.0%	33%[activator][38.3 µM]	-8%	.	3%	1%
Cc1ccccc1Cc1c(C)nc2c(C(=O)NCc3ccco3)cnn2c1C	-0.3%	27%[38.3 µM]	9%	-2%	-5%	0%
CCC(C)(C)NC(=O)C(OC(=O)c1cc2sccc2n1C)c1ccc(OC)cc1 (configuration not stated)	1.2%	3%[38.3 µM]	-7%	8%	5%	-5%
C/C(=N\NC(=O)c1ccc(NS(=O)(=O)c2cccs2)cc1)c1cccs1	0.9%	6%	5%	5%	4%	2%
COc1ccc(N=C2S/C(=C\c3cc(C)n(C)c3C)C(=O)N2CC(C)C)cc1	-3.4%	11%[38.3 µM]	29%	-22%	-24%	-2%
Cc1ccc(-c2cnc(NC(=O)CCC(=O)N(C)Cc3ccccc3)n2C)cc1	3.4%	-5%[38.3 µM]	?	-15%	-17%	-6%
CCCCn1nc(NC(=O)c2cccs2)c2cc3cc(OC)ccc3nc21	-0.9%	15%	-25%	119%[activator]	?	2%
O=C(Nc1cc(C(F)(F)F)ccc1N1CCCCC1)c1ccco1	-2.1%	31%[38.3 µM]	0%	6%[11.4 µM]	3%	0%
CCN(CC)CC(=O)N1c2ccccc2Oc2c(c(=O)n(C)c(=O)n2C)C1c1cccc([N+](=O)[O-])c1 (configuration not stated)	-2.8%	.	-7%[9.22 µM]	.	13%	.
O=C(Nc1ccc(Oc2ccc3ccccc3c2)cc1)c1ccco1	0.0%	45%[activator][38.3 µM]	?	.	-1%	-4%

Only Epigenetic reg and KinaseGlo FLuc (2 entries from above):
smiles,Epigenetic reg,KinaseGlo FLuc
Cc1ccc(NC(=S)N(CCCN2CCCC2)Cc2cccn2Cc2ccc(Cl)cc2)cc1C,-0.1%,3%
C[C@H](NC(=O)c1nc[nH]c1C(=O)NC(c1ccccc1)c1ccccc1)C(=O)OCc1ccccc1,-6.1%,.

Grouped by structure: the compounds so far with a CF3 group
SMILES	Epigenetic reg	IMPase Li cell	HTT aggregate	L3MBTL1 block	CBFb RUNX1 block	KinaseGlo FLuc
Cc1cc(NC(=O)CCS(=O)(=O)c2nc(-c3ccccc3)cc(C(F)(F)F)n2)no1	2.9%	37%[activator][38.3 µM]	.	.	4%	3%
O=C1Nc2c(c(=O)[nH]c(=O)n2-c2ccccc2)C(C(F)(F)F)(C(F)(F)F)N1	-1.0%	14%[38.3 µM]	-9%	.	1%	-5%
O=C(Nc1cc(C(F)(F)F)ccc1N1CCCCC1)c1ccco1	-2.1%	31%[38.3 µM]	0%	6%[11.4 µM]	3%	0%

Not all compounds are listed. The share of hits here may be higher or lower than overall.
